CSC inhib: cancer stem cell viability inhibitors, primary screen, luminescence; cancer stem cell-like cells viability; inhibition, % at 7.5 µM; actives 1.1% (n = 300,000); AID 2717, 2010;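 active means mean at 75% or more and at least half the replicates too; tested in HMLE shEcad cells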;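 further: 0% = median of negative and 100% = median of positive control wells; the first replicate is given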
UUG fidelity: modulators of yeast start codon fidelity, primary screen, whole organism, S. cerevisiae, single point, plate reader. actives 0.13% (n = 350,000). activity score, % at 18.7 µM. S. cerevisiae UUG-firefly luciferase reporter, luminescence/redox ratio;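 active means replicate mean at a twofold rise or more, about +100% in these data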;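 further: firefly luciferase made from a UUG start codon reports start codon fidelity; reporter light over untreated wells divided by growth signal over untreated wells; some hits fall short of that in this replicate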
Rce1 inh: yeast Rce1p protease inhibitors, primary screen, biochemical, fluorescence, cell-free homogeneous; yeast membranes, quenched prenylated peptide cleavage fluorescence; AID 2563, 2010; actives 0.27% (n = 290,000); calls only; CAAX prenyl protease 2 (Saccharomyces cerevisiae (strain ATCC 204508 / S288c)), Q03530;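 active means fall in fluorescence gain of 50% or more versus controls, with final raw signal at or below 3038400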;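 further: plate controls were neutral control wells for no effect and wells lacking membranes for full effect; tested at 10 µM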
MT1-MMP act inh: blockers of MT1-MMP proenzyme processing, primary screen, HT1080 RFP-PRO-GFP cells, GFP/RFP fluorescence; GFP/RFP ratio fluorescence, overnight; percent of plate control window, DMSO zero; actives 0.061% (n = 360,000); GFP/RFP ratio change, % at 20 µM;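 active means GFP/RFP ratio change of at least 30% with cell ATP level not reduced by more than half and red fluorescence within 50% of control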; further: strong numbers were not always called active
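Read-out: GFP/RFP fluorescence ratio; Test system: RFP-PRO-GFP reporter HT1080 cells; Compound dosing: single-point 20 µM compound, 1% DMSO; Times: overnight compound exposure at 37 °C.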
PABP FP inh: PABP poly(A) RNA binding inhibitors, primary screen, biochemical, fluorescence polarization, uHTS; Polyadenylate-binding protein 1 (Homo sapiens), P11940; inhibition, % at 35 µM; actives 1% (n = 290,000); AID 2014, 2009;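 active means 50% or more with normal probe brightness, or confirmed in later tests; about a fifth of its hits are not listed in these tables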;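 further: calls also rest on retests at 20 µM and on dose response follow-up; controls were probe without protein and protein plus probe with vehicle; some compounds called inactive have numbers as strong as hits; many hits fall short of the cut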
Target sequence (P11940 whole entry, looked up): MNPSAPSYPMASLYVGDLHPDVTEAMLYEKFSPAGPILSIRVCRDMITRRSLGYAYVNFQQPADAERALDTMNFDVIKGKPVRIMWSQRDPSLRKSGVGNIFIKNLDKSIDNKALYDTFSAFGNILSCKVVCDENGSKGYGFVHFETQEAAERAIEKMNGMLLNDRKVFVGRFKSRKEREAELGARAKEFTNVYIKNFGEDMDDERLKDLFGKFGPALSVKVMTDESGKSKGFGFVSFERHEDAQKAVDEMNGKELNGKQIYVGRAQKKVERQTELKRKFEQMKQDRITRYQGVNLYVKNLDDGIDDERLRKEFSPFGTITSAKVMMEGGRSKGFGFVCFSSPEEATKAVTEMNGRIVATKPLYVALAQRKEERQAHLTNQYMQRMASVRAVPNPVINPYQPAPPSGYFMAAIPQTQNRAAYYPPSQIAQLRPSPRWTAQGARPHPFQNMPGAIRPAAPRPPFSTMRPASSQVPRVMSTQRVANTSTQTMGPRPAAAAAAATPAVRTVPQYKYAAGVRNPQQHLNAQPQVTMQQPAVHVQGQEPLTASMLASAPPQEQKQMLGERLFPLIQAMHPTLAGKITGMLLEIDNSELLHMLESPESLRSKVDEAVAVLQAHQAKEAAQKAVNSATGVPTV
eIF4H FP inh: human eIF4H binding inhibitors, primary screen, translation initiation inhibitor project, biochemical, uHTS, fluorescence polarization | Eukaryotic translation initiation factor 4H (Homo sapiens), Q15056 | eIF4H fluorescence polarization binding assay | actives 0.94% (n = 290,000) | inhibition, % at 35 µM;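 active means 50% or more with normal probe brightness, or confirmed in later tests; about a fifth of its hits are not listed in these tables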;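 further: calls also rest on retests at 20 µM and on dose response follow-up; 0% = protein and probe with vehicle and 100% = probe without protein; strong numbers were not always called active; many hits fall short of the cut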
Env fusion inh: inhibitors of HIV-1 Env-driven cell-cell fusion, primary screen, HeLa-JRFL effector, CEM21 target cells, luciferase; inhibition, % at 12.3 µM; actives 1.1% (n = 360,000);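 active means mean replicate inhibition score of at least 50 and every replicate individually at or above 50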;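 further: 0% = plate neutral controls and 100% = maraviroc near 300 nM; one replicate is shown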
eIF4H FP inh retest: second read-out of eIF4H FP inh, no call of its own (marks repeat the call); inhibition, %; compound at 20 µM; confirmation average;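 mean of two retest wells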
PABP FP inh retest: further read-out of PABP FP inh, marked with its call; inhibition, %; compound at 20 µM; confirmation repeats;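 mean of two retest wells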
MT1-MMP act inh RFP: further read-out of MT1-MMP act inh, marked with its call; RFP signal change, %; measured here: RFP expression control read;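 0 = vehicle wells; hits needed this value within 50% of zero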
* = called active by the depositor; i = inactive; . = not tested or not shown; & = joins results of further samples. Only part of the results is shown; the hit share may differ from the screen's.

SMILES | CSC inhib | UUG fidelity | Rce1 inh | MT1-MMP act inh | MT1-MMP act inh RFP | PABP FP inh | eIF4H FP inh | Env fusion inh | others
CC/C(C)=N/Nc1nc(-c2cc3cccc(OC)c3oc2=O)cs1 | 46 | -22 | i | 4 | -4 | 18 | 52 | -16 | eIF4H FP inh retest=20;PABP FP inh retest=34
Cc1ccc(C)c(N2CCN(C(=S)NC3CCCCC3)CC2)c1 | -16 | -13 | i | 0 | -2 | 10 | 9 | 7
COc1ccc(N=C2C(=Nc3ccc(OC)cc3)N(c3ccc(OC)cc3)C(=S)N2C(=O)c2ccc(OC)cc2)cc1 | -7 | -13 | i | 6 | 0 | -3 | -5 | -55
Cc1ccc(C(=O)Oc2cccc(-n3cnnn3)c2)cc1 | -8 | . | i | -2 | 5 | 1 | -5 | -44
Cc1[nH]n(C)c(=O)c1C(=O)c1c(-c2c(Cl)cccc2Cl)noc1C | -4 | -9 | i | 4 | 0 | 5 | 2 | -63
O=C(O)c1ccc(S(=O)(=O)N(Cc2ccccc2)C2CCCCC2)cc1 | -1 | -14 | i | -1 | 3 | 5 | -4 | -9
CCN(CC)S(=O)(=O)c1ccc(C(=O)OCC(=O)NC2CCCC2)cc1 | . | -6 | i | 0 | 5 | 14 | -2 | 3
Nn1c(SCC(=O)NC2CCS(=O)(=O)C2)nnc1-c1cccs1 (stereo not drawn) | -5 | -3 | i | -2 | 2 | 13 | 5 | 5
C=CCNC(=S)Nc1cccc([N+](=O)[O-])c1 | 4 | . | i | -2 | -4 | 0 | 6 | -9
Cc1ccc(C=Cc2ccccn2)cc1 | . | -4 | . | 3 | 8 | . | . | -82
CCn1nnc(NC(=O)CSc2ccc(Cl)cc2)n1 | 2 | -7 | i | 2 | 3 | 40 | 34 | .
COc1cccc(CNC(=O)COC(=O)c2cccc(S(=O)(=O)N3CCN(C(C)=O)CC3)c2)c1 | -15 | -10 | . | 0 | -4 | . | . | -8
COc1cc(O)sc1C=Nc1ccc(Cl)cc1Cl | 0 | . | i | 0 | 2 | 4 | 0 | 42
CC(C)CNC(=O)COC(=O)CCC(=O)c1cccs1 | . | . | i | -1 | 0 | 1 | -1 | 8
Cc1ccc(S(=O)(=O)N(C)C[C@H]2Oc3ncc(Br)cc3C(=O)N([C@H](C)CO)C[C@@H]2C)cc1 | . | -11&9&7 | . | 1 | 4 | . | . | -9
O=C(Nc1ccccc1)c1ccccc1OCc1ccc(S(=O)(=O)N2CCOCC2)cc1 | 7 | . | i | 4 | 0 | 7 | -7 | -13
CSc1nnc(N(CCC#N)CCC#N)s1 | -10 | -6 | i | -4 | 3 | -5 | -2 | .
CCOC(=O)c1cccc(NC(=O)CN(c2ccc(OC)cc2)S(=O)(=O)c2c(C)noc2C)c1 | -2 | -3 | i | 5 | -3 | -7 | -3 | -8
C[C@@H]1CN([C@H](C)CO)S(=O)(=O)c2ccc(Br)cc2O[C@H]1CN(C)C(=O)Cc1ccccn1 | . | 0 | . | 1 | 3 | . | . | -28
Cc1ccc(OCCOc2cccc(/C=N/NC(N)=O)c2)cc1 | -7 | -2 | i | 2 | 1 | 2 | -4 | -11
O=C(Nc1ccccc1)c1cc(C2CCCN(C(=O)c3ccccc3)C2)on1 (stereo not drawn) | . | -4 | . | -1 | -2 | . | . | -16
Cc1cccc(CN2CCN(c3ncccn3)CC2)c1 | 1 | -6 | i | -2 | 1 | 11 | 13 | 4
CCn1cc(/C=C(\NC(=O)c2ccccc2OC)C(=O)N2CCN(C)CC2)c2ccccc21 | 17 | . | i | -1 | 1 | 1 | -8 | -13
CC(CNC(=O)CCc1nnc(CCC2CCCCC2)o1)c1ccccc1 (stereo not drawn) | 4 | . | i | -13 | -5 | -9 | -12 | -4
COc1ccc(NC(=O)N(C)C[C@H]2Oc3c(NC(=O)Nc4c(C)noc4C)cccc3C(=O)N([C@H](C)CO)C[C@@H]2C)cc1 | . | -3&3 | . | -1 | 3 | . | . | -26
O=C(NCC(=O)N(Cc1ccccc1)C(C(=O)NCC1CCCO1)c1ccccc1)c1ccco1 (stereo not drawn) | -16 | -2 | i | -4 | -2 | 1 | 10 | -5
O=C(CSc1ncn[nH]1)Nc1ccc(OCc2ccccc2)cc1 | -2 | . | i | -2 | 1 | 2 | -7 | -42
O=C(c1ccc(Br)o1)N1CCN(c2ncccn2)CC1 | 6 | -29 | i | 0 | -4 | -3 | -2 | -126
CC1CCc2cc(F)ccc2N1C(=O)c1cc2nc(-c3ccco3)cc(C(F)(F)F)n2n1 (stereo not drawn) | 3 | -6 | i | -9 | -11 | -3 | -11 | .
CCOc1ccc(NC(=O)Cn2c(=O)n(CCCC(=O)NC3CCN(Cc4ccccc4)CC3)c(=O)c3ccccc32)cc1 | -17 | -1 | i | -4 | -5 | -5 | -7 | -4
CCOc1ccc(N2CC(C(=O)NC(C)C)CC2=O)cc1 (stereo not drawn) | 18 | -9 | i | -2 | 5 | -5 | 8 | -14
CN=C1S/C(=C\c2cccc(Cl)c2Cl)C(=O)N1C | 8 | . | i | . | . | . | . | -9
COc1cccc(S(=O)(=O)NCC(=O)Nc2ccc(C(C)(C)C)cc2)c1 | 4 | 9 | i | 0 | -4 | 0 | 0 | .
CC(C(=O)Nc1ccc2c(c1)OCO2)N(C)CC(=O)Nc1ccccc1Cl (stereo not drawn) | -14 | 1 | . | 2 | -3 | . | . | 13
COc1cc(NC(=O)c2ccccc2)c(OC)cc1NC(=O)Cc1cccs1 | 3 | . | i | -2 | 0 | 7 | 58* | -3 | eIF4H FP inh retest=59*;PABP FP inh retest=33
CCOc1cc(NC(=O)c2ccco2)c(OCC)cc1NC(=O)COc1ccccc1C | 10 | -15 | . | -13 | -5 | . | . | 2
CCCCCCCCC(=O)N/N=C(\C)c1cccnc1 | -8 | -11 | i | -3 | 1 | 3 | 4 | -60
Cn1c2c(c(=O)n(C)c1=O)C(c1ccc(Cl)cc1)C(C#N)=C(N)O2 (stereo not drawn) | -7 | -5 | i | -9 | 1 | 50 | -1 | 4 | eIF4H FP inh retest=-8;PABP FP inh retest=3
COc1ccc(OCc2nnc(SCC(=O)N3CCCc4ccccc43)n2-c2ccc(C)cc2)cc1 | -13 | -9 | i | -4 | -7 | 5 | 7 | 5
COC(CNS(=O)(=O)c1ccc(S(=O)(=O)NC2CC2)cc1)OC | -1 | 21 | i | 1 | -2 | 5 | 2 | 1
Cc1cc(C)nc(SCC(=O)Nc2ccc(S(=O)(=O)NCCO)cc2)n1 | . | -5 | i | -1 | 5 | -11 | -6 | 3
OC(CCCN1CCCCC1)(c1ccccc1)c1ccccc1 | -5 | -3 | i | 2 | 6 | 7 | -2 | 1
CC(=O)C[C@H]1c2cc(C(F)(F)F)ccc2S(=O)(=O)N1C1CCCC1 | -4 | -13 | i | 4 | 3 | . | . | -15
O=C(N/N=C/c1ccc([N+](=O)[O-])o1)C(O)c1ccccc1 (stereo not drawn) | -6 | 4 | i | 0 | -10 | 5 | 36 | -7
O=C(O/N=C1\CCCc2ccccc21)c1cccs1 | . | -18 | i | 3 | 4 | 0 | -8 | 5
COc1ccc(CCC(=O)NCc2ccc3c(c2)OCO3)cc1 | . | -8 | i | 1 | 6 | 2 | 6 | 9
COc1ccccc1NS(=O)(=O)c1cc(NC(=O)CNC(=O)c2cc(C)cc(C)c2)ccc1C | 2 | -13 | i | -6 | -19 | 5 | 2 | .
COc1ccc(C)cc1NC(=O)Nc1ccc(C(=O)N2CCCC2)cc1 | 35 | 9 | i | 1 | 0 | 5 | -1 | -20
COc1ccc(Cc2nnc(NC(=O)c3ccc(C)cc3)s2)cc1OC | 34 | -16 | i | -3 | 0 | 10 | 0 | -2
O=C(CCS(=O)(=O)Cc1ccccc1)Nc1nc2c(s1)CCCC2 | 47 | -27 | i | 2 | -10 | -5 | -2 | .
COCCCNC(=O)CCc1nnc(Cc2ccc(-c3ccccc3)cc2)o1 | . | -14 | i | 1 | -1 | -3 | -11 | -9
O=C(CCN1C(=O)/C(=C/c2ccc(Cl)cc2)SC1=S)Nc1cccc(C(=O)O)c1 | 8 | 0 | i | 11 | 9 | 1 | 16 | -12
COCCCNc1nc2c(c(=O)n(Cc3ccc(Cl)cc3)c(=O)n2C)n1C | 6 | -6 | i | -1 | 1 | -2 | 4 | 5
COC(=O)c1c(NC(C)=O)sc(C(=O)Nc2ccccc2F)c1C | 11 | . | i | 1 | 3 | 6 | -1 | -18
O=C(COC(=O)c1cccs1)NCc1cccs1 | -5 | -17 | . | -2 | 2 | 6 | -8 | -4
O=C(CCC1CCCN(Cc2cccc(Cl)c2)C1)NCc1ccccc1F (stereo not drawn) | -3 | -11 | i | 5 | 3 | 39 | 51 | 14 | eIF4H FP inh retest=40;PABP FP inh retest=42
O=c1[nH]c2ccc(NC(=S)Nc3ccc(Cl)cc3)cc2[nH]1 | -6 | -22 | i | 4 | 4 | -6 | -6 | .
COc1ccccc1NC(=O)NCCN1CCNC1=O | 6 | -16 | i | -2 | 5 | 5 | -5 | 0
CCOc1ccc(CCN2C(=S)N([C@@H](Cc3ccc(O)cc3)CN3CCC[C@@H]3CN3C(=S)NC[C@@H]3Cc3ccccc3)C[C@@H]2Cc2ccc(O)cc2)cc1 | . | -13 | . | -4 | -8 | . | . | -228
O=C(/C=C/c1ccc(F)cc1)NC(=S)Nc1ccccc1C(=O)NC1CCCCC1 | -7 | . | i | -7 | 0 | -4 | 0 | .

Arranged by number of heavy atoms (highest first): 3 of the compounds above
SMILES | CSC inhib | UUG fidelity | Rce1 inh | MT1-MMP act inh | MT1-MMP act inh RFP | PABP FP inh | eIF4H FP inh | Env fusion inh | others
COc1ccc(NC(=O)N(C)C[C@H]2Oc3c(NC(=O)Nc4c(C)noc4C)cccc3C(=O)N([C@H](C)CO)C[C@@H]2C)cc1 | . | -3&3 | . | -1 | 3 | . | . | -26
O=C(CCC1CCCN(Cc2cccc(Cl)c2)C1)NCc1ccccc1F (stereo not drawn) | -3 | -11 | i | 5 | 3 | 39 | 51 | 14 | eIF4H FP inh retest=40;PABP FP inh retest=42
O=C(COC(=O)c1cccs1)NCc1cccs1 | -5 | -17 | . | -2 | 2 | 6 | -8 | -4

More records.
SMILES | CSC inhib | UUG fidelity | Rce1 inh | MT1-MMP act inh | MT1-MMP act inh RFP | PABP FP inh | eIF4H FP inh | Env fusion inh | others
CCC(CC)C(=O)Nc1ccc(C)c(O)c1 | -2 | . | i | -2 | 0 | 6 | 3 | .
COc1ccc(NC(=O)CSc2nc3ccccc3c(=O)n2C)cc1 | -13 | -11 | i | 0 | -21 | -6 | -3 | 14
CN(C)c1oc(/C=C/c2ccccc2)nc1C#N | 0 | . | i | -1 | -4 | -7 | 2 | -42
C/C=C(\C)C(=O)NCCN1C2=NC[C@H](Cc3ccc(O)cc3)N2C[C@@H]1Cc1ccc(OC)cc1 | -6 | 11 | i | 0 | 2 | -8 | -4 | 9
Cn1cc(/C=C(\C#N)C(=O)Nc2cccc([N+](=O)[O-])c2)c2ccccc21 | 3 | -24 | i | -2 | 1 | 2 | -7 | -8
O=C(NCc1ccco1)c1nn2c(C(F)(F)F)cc(-c3cccs3)nc2c1Cl | -1 | -15 | i | -3 | 6 | 12 | 7 | .
Cc1ccc(NC(=O)c2cc(-c3ccccc3O)n[nH]2)cc1Cl | 5 | -22 | i | 6 | 4 | -7 | -3 | -17
CCn1c(COC(=O)CNC(=O)c2cc(OC)c(OC)c(OC)c2)nc2cc(S(=O)(=O)N(C)C)ccc21 | . | -2 | i | 1 | -2 | . | . | .

Screening data (PubChem)
